Screening results: PubChem BioAssay, several laboratories
Mtb H37Rv: M. tuberculosis H37Rv growth inhibitors, H37Rv strain (AID 1626). M. tuberculosis H37Rv growth inhibition; higher % means a stronger effect. inhibition, % at 10 µM, or IC50 in µM where a hit was titrated. actives 0.95% (n = 220,000);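 active means confirmed in a dose series; inconclusive means inhibition above 80% but not taken into the dose series; inactive means below 80% or under 30% at every dose of the series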;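 further: bacteria incubated seven days before Alamar blue readout; 0% = bacteria only wells and 100% = bacteria with antibiotic wells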
Arbovirus inh: antivirals against arbovirus infection, primary screen, cell-based, full library, 10K replicate subset. arbovirus infection cell-based antiviral screen. inhibition, % at 10 µM. actives 0.37% (n = 200,000). AID 1251, 2008;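 active means inhibition from about 30%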;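 further: bluetongue infection of BSR cells; cell survival read as ATP light after 72 h; 0% = infected wells without compound and 100% = uninfected wells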
RecA splice inh: Mtb RecA intein splicing inhibitors, primary screen, biochemical, fluorescence, HTS | Protein RecA (Mycobacterium tuberculosis (strain ATCC 25618 / H37Rv)), P9WHJ3 | actives 0.75% (n = 290,000) | AID 2221, 2009 | cell-free RecA intein splicing | inhibition, %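 (about 9 µM by stock and volumes)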; in the data active means inhibition above about 30%; inconclusive means no clear call, values can overlap the other calls;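 further: 0% = vehicle wells and 100% = reference inhibitor control wells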
Target sequence (P9WHJ3 whole entry, looked up, canonical isoform): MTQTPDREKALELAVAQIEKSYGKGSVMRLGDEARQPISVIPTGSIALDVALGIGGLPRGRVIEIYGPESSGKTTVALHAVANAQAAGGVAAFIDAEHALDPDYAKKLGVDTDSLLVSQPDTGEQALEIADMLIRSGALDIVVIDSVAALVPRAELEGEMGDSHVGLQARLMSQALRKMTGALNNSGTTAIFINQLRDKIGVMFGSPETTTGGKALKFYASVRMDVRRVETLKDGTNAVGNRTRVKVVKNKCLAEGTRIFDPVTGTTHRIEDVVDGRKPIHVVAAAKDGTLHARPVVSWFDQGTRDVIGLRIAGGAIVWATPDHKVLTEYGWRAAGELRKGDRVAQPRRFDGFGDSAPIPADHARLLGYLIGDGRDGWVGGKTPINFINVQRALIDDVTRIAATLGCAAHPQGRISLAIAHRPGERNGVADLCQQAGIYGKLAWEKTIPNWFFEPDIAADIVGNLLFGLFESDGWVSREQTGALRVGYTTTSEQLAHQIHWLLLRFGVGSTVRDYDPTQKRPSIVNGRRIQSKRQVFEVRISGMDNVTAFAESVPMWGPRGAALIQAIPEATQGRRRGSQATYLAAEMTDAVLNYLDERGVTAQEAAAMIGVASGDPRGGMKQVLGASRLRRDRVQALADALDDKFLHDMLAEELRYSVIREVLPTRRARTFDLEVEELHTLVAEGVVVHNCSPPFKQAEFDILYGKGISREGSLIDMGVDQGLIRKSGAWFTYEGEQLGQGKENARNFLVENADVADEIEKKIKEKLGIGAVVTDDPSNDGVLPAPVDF
YopH inh: YopH tyrosine phosphatase inhibitors, primary screen, biochemical, fluorescence Ex485/Em525. actives 0.16% (n = 140,000). AID 898, 2007. inhibition, %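 (about 10 µM by stock and volumes)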. YopH tyrosine phosphatase [Yersinia enterocolitica];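 active means inhibition of 50% or more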;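 further: controls were vehicle for no effect and minimum signal wells for full effect; inactives centre near -20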
Mtb bLac sens: beta-lactam sensitization of Mtb H37Rv, H37Rv | AID 434955, 2010 | actives 0.27% (n = 330,000) | inhibition, % at 25 µM | M. tuberculosis H37Rv growth with meropenem, percent inhibition; hits of this screen are not shown here;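 active means about 74% or more and at least 40 points above the plate without the antibiotic, then above 30% in a dose series; inconclusive means first-round hits that could not be retested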;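 further: growth measured after seven days incubation then overnight dye step; 0% = bacteria only wells and 100% = bacteria with antibiotic; twin plates without the antibiotic show which effects depend on it; some results filed as inactive read as strong as hits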
Arbovirus inh repeat: second read-out of Arbovirus inh, no call of its own (marks repeat the call); inhibition, %; measured here: 10K subset replicate screen; many hits read low in the repeat;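 first of two repeat runs on a subset; 0% = infected and 100% = uninfected wells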
* hit, by the source's call; ? = inconclusive; · = not tested or not shown. An excerpt; count on the stated rates, not on these rows.

SMILES	Mtb H37Rv	Arbovirus inh	RecA splice inh	YopH inh	Mtb bLac sens	others
COc1ccc(CC(=S)NCCc2ccccc2)cc1	·	·	1.9	·	3
CCN1C(=O)c2cccc3c(NC(=O)C4CCCCC4)ccc1c23	2%	-10	0.1	-43	16
Cc1ccc2nc(SCc3nnc(-c4cccs4)o3)[nH]c2c1	2%	-3	-0.4	-48	1
CCN1CCN(CCCN(Cc2cccs2)C(=S)Nc2ccccc2C)CC1	6%	-2	-1.1	·	-2
CN1CCN(C(=O)/C(=C/c2ccccc2Cl)NC(=O)c2ccccc2)CC1	·	·	2.1	·	2
COC1(OC)N=C(N)C2(C#N)C(c3ccc4c(c3)OCO4)C12C#N (stereo not drawn)	-4%	-9	-3.1	-16	-7
O=Cc1ccc(-c2ccc(C(=O)O)cc2)o1	8%	·	-3.2	·	-8
CCC(C)(C)NC(=O)CN(C(=O)CCC(=O)Nc1ccccn1)c1ccc(F)c(Cl)c1	-1%	1	1.1	-5	-1
O=C(O)Cn1c(-c2ccccc2)nc2ccccc21	0%	1	-0.3	-50	-3
COc1cccc(CN(C)C(=O)c2ccccc2Sc2ccccc2C#N)c1OC	·	·	0.4	·	-2
Nc1ccc(C(=O)OCC(=O)Nc2ccc3c(c2)OCO3)cc1[N+](=O)[O-]	0%	-10	-6.1	-30	3
O=C(O)C1CCCCC1C(=O)NCc1ccc(Cl)c(Cl)c1 (stereo not drawn)	-3%	1	-1.9	·	18
COc1cccc(CC(=O)OCC(=O)NC2CCCCCC2)c1	·	·	-1.0	·	-14
Cn1c(N2CCCC2)nc2c1c(=O)n(Cc1ccc(Cl)cc1)c(=O)n2C	17%	18	-4.5	4	7
CCC1=Nc2cc(C(=O)N3CCC4(CC3)OCCO4)ccc2Sc2ccc(Br)cc21	·	·	-1.1	·	52
O=C(OC(C(=O)NCc1ccco1)c1ccc(Cl)cc1)c1cccs1 (stereo not drawn)	28%	·	0.1	·	13
COCc1cc(=O)[nH]c(SCC(=O)c2ccccc2)n1	8%	·	0.1	·	-3
O=C(Nc1nc2ccccc2[nH]1)c1ccc([N+](=O)[O-])cc1	75%	-5	-3.2	·	1
O=C(CN1CCN(S(=O)(=O)c2ccccc2)CC1)Nc1ccc(Cl)c(Cl)c1	-6%	-31	5.1	-6	-8
CCOC(=O)CN1N=C(c2ccc(C)cc2)CCC1=O	·	·	0.8	·	-4
CC(=O)Oc1cccc(NC(=O)c2ccc3c(c2)C(=O)N(CC(C)C)C3=O)c1	·	·	0.6	·	4
CCn1nnnc1SCC(=O)Nc1ccc(N(C)C)cc1	·	·	-2.8	·	1
CCN(CC)CCN(C(=O)CN1C(=O)CCC1=O)c1nc2cc3c(cc2s1)OCO3	3%	2	-0.1	·	-1
O=C1CC(c2ccccc2)CC2=C1CN(C1CCCCC1)CN2 (stereo not drawn)	-7%	-20	·	-5	-10

Among those listed so far, 6 contain a Cl atom.
SMILES	Mtb H37Rv	Arbovirus inh	RecA splice inh	YopH inh	Mtb bLac sens	others
CN1CCN(C(=O)/C(=C/c2ccccc2Cl)NC(=O)c2ccccc2)CC1	·	·	2.1	·	2
CCC(C)(C)NC(=O)CN(C(=O)CCC(=O)Nc1ccccn1)c1ccc(F)c(Cl)c1	-1%	1	1.1	-5	-1
O=C(O)C1CCCCC1C(=O)NCc1ccc(Cl)c(Cl)c1 (stereo not drawn)	-3%	1	-1.9	·	18
Cn1c(N2CCCC2)nc2c1c(=O)n(Cc1ccc(Cl)cc1)c(=O)n2C	17%	18	-4.5	4	7
O=C(OC(C(=O)NCc1ccco1)c1ccc(Cl)cc1)c1cccs1 (stereo not drawn)	28%	·	0.1	·	13
O=C(CN1CCN(S(=O)(=O)c2ccccc2)CC1)Nc1ccc(Cl)c(Cl)c1	-6%	-31	5.1	-6	-8

(listing goes on)
SMILES	Mtb H37Rv	Arbovirus inh	RecA splice inh	YopH inh	Mtb bLac sens	others
CC(=NCC1CCCO1)c1c(O)n(Cc2ccccc2)c(=O)[nH]c1=O (stereo not drawn)	0%	5	-2.9	-8	-6
Cn1cccc1C(=O)NC(=O)CSc1cccc[n+]1[O-]	6%	11	3.9	-35	5
O=C(COc1coc(CN2CCc3ccccc3C2)cc1=O)N1CCOCC1	·	·	-1.2	·	-2
CC1CCCN(C(=O)c2ccc3nc[nH]c3c2)C1 (stereo not drawn)	-9%	1	3.0	-39	-6
COc1cc(C)ccc1OCCOc1cc(C)ccc1Cl	-6%	-5	11	-39	32
COCC(=O)N/N=C\c1ccccc1OC/C=C/c1ccccc1	·	·	3.1	·	12
C[n+]1c(-c2ccccc2)cc(-c2ccc(O)cc2)cc1-c1ccccc1	3%	4	1.2	·	2
N#CC1=C(S)N(c2ccc(F)cc2)C(c2ccco2)NC1=O (stereo not drawn)	-2%	-4	3.6	·	-14
CCOc1ccc(S(=O)(=O)N2CCC(C(=O)N3CCN(Cc4ccccc4)CC3)CC2)cc1	·	·	-2.2	·	-12
CN1C2=CC=CC=CC2=[N+](C)C12C=CC(=[N+]([O-])[O-])C=C2[N+](=O)[O-] (stereo not drawn)	5%	-1	1.0	·	4
CCOC(=O)C1CCCN(S(=O)(=O)c2c(C)noc2C)C1 (stereo not drawn)	·	·	-0.6	·	-5
COc1ccccc1NC(=S)NCc1ccc2c(c1)cc(C)n2C	-6%	0	2.8	·	2
CCOC(=O)c1cnc2c(cnn2C)c1Oc1ccc(OC)cc1	5%	2	0.3	·	-4
COCC1CCN(C(=O)C2CCC(=O)N(C3CCCCCC3)C2)CC1 (stereo not drawn)	·	·	-1.3	·	-5
Cc1nnc(SCC(=O)Nc2nc(-c3ccccc3)cs2)n1N	-6%	5	1.0	-42	55
CCN(CC)c1ccc2cc(-c3nnc(-c4ccncc4)o3)c(=O)oc2c1	20%	5	·	-17	·
Cc1cccc(NCc2cccc3ccccc23)n1	·	·	4.9	·	-4
Cc1cc(/C=C2\SC(=Nc3ccc(N4CCOCC4)cc3)N(C)C2=O)c(C)n1-c1cccnc1	30%	1	-5.6	-27	-1
COc1ccc(NC(=O)C(c2cc3c(cc2[N+](=O)[O-])OCO3)N(C)c2ccccc2)cc1 (stereo not drawn)	8%	-4	2.4	-4	5
Cc1ccc(OCCn2cncn2)c([N+](=O)[O-])c1	·	·	-0.1	·	-3
C[C@H](NC(=O)c1cc2cc(Cl)ccc2n1C)C(=O)N1CCC(C(=O)O)CC1	·	·	-0.8	·	3
COc1ccc(Cc2nnc(NC(=O)C3CC(=O)N(c4ccccc4C)C3)s2)cc1OC (stereo not drawn)	·	·	-0.4	·	-11
CN1CCN(CCC(=O)N/N=C/c2ccccc2F)CC1	-13%	·	-0.4	·	-2
Cc1ccc(NC(=O)CN(C)CC(=O)Nc2ccc(N3CCOCC3)cc2)cc1F	-2%	1	-3.2	·	0
CCC(C#CCN1CCCCC1)(CC)OCCC#N	·	-2	·	-43	-5	Arbovirus inh repeat=12
Cc1cc(C)nc(SCC(=O)N/N=C/c2ccc3c(c2)OCO3)n1	·	·	-2.3	·	-1
O=C(Cn1c(C(=O)N2CCN(C3CCCC3)CC2)cc2sccc21)c1ccccc1	6%	7	1.4	-32	4
COc1ccccc1CNS(=O)(=O)c1ccc2c(c1)NC(=O)CO2	·	·	-2.7	·	4
COc1ccc(CN2CCNC(=O)C2CC(=O)N2CCCO2)c(OC)c1 (stereo not drawn)	18%	-4	1.0	·	0
COc1ccc(CNC(=O)C(c2ccc(O)cc2)N(Cc2ccco2)C(=O)c2snc(C(N)=O)c2N)cc1 (stereo not drawn)	·	·	-6.1	·	8
C=CCNc1nc(N)c([N+](=O)[O-])c(Nc2cccc(Cl)c2)n1	·	·	1.6	·	-2
CC(C)Cc1[nH]c(=O)c(C#N)c2c1CCCC2	-5%	6	-0.5	-5	-4
COc1ccc(NC(=O)c2sc3nc(N4CCOCC4)c4c(c3c2N)CC(C(C)C)OC4)c(OC)c1 (stereo not drawn)	·	·	0.8	·	2
O=C(CN1CCCC1)NC1C2CC3CC(C2)CC1C3 (stereo not drawn)	-9%	-2	-1.9	-49	-3
Cc1nn(C)c(Cl)c1CN1CCCC(C(=O)Nc2ccc(-c3cscn3)cc2)C1 (stereo not drawn)	·	·	-3.3	·	?
Cc1ccccc1NC(=O)CCl	6%	·	3.4	·	96
O=C(NCc1ccco1)c1ccc2c(c1)N(Cc1ccccc1)CCS2	6%	·	14	·	-2
Cc1ccc(OCc2nc(-c3ccccn3)no2)cc1	2%	13	0.2	-25	5
Cn1c(SCC(=O)Nc2cccc(F)c2)nnc1-c1cc2ccccc2o1	0%	-4	-3.2	15	25
CC(=O)c1c(NC(=O)C(C)C)nc(C)nc1-c1ccccc1	4%	2	1.1	-40	0	Arbovirus inh repeat=-1
CSc1ccc(NC(=O)NCCCN2CCN(c3ccccc3F)CC2)cc1	51%	-18	-22	-12	89
COc1ccc(S(=O)(=O)NCc2cccnc2)cc1	·	·	1.9	·	13
C(=C\c1ccccc1)/CSc1nnc(-c2ccccn2)n1Cc1ccco1	3%	-2	10	-14	56
O=C1C(NS(=O)(=O)c2ccc(Cl)cc2)=C(N2CCCCC2)C(=O)c2ccccc21	1%	-21	9.7	-5	9
CC12CN3CCN(CC(C3)C1O)C2 (stereo not drawn)	-5%	10	3.7	-52	-3
COc1ccc(CCNC(=O)Cn2nnc(-c3ccccc3F)n2)cc1OC	-3%	-5	-2.1	8	7
C#CCOC(=O)C(NC(=O)c1ccccc1)=C1CCCCC1	-1%	-1	-11	1	52
O=C(O)c1ccc(-c2ccccc2)[nH]1	-5%	-1	-12	-47	-21
O=C(Nc1cccc(-c2cccc(F)c2)c1)C1CCN(CC2CCOC2)CC1 (stereo not drawn)	·	·	18	·	3
O=C(CSc1ccc([N+](=O)[O-])cc1)NNC(=O)c1ccccc1F	·	·	0.6	·	73
Cc1nc2ccccc2c(=O)n1/N=C/c1ccc(O)cc1	-2%	-26	1.2	-45	-3
COC(=O)c1c(C(=O)OC)c(-c2ccc(OC)cc2)n2c1CS(=O)C2 (stereo not drawn)	·	·	2.5	·	-11
CC(=O)Oc1ccc2c(=O)c(/C=N/c3cc(=O)[nH]c(=S)[nH]3)coc2c1	5%	·	-0.4	·	2
CC(=O)c1c(-c2ccc(Cl)cc2)c2ccccc2[nH]c1=O	1%	4	2.1	·	0
C[N+](C)(N)CCOC(=O)C(O)(c1ccccc1)C1CCCCC1 (stereo not drawn)	·	·	-1.6	·	1
Clc1ncnc2scc(-c3ccc(Br)cc3)c12	7%	2	16	-10	10
COc1ccc(CNC(=O)c2cc(COc3c(F)cccc3F)on2)cc1OC	0%	9	-2.5	·	0
CC(=O)Nc1ccc(N=c2cc([N+](=O)[O-])cc(Cl)n2O)cc1	·	·	-4.8	·	-1
NC(=O)C1CCN(c2ccc(C(F)(F)F)cc2[N+](=O)[O-])CC1	-11%	2	1.7	-1	10
CCOC(=O)c1c(NC(=O)C(C)S(=O)(=O)c2cn(CC)c3ccccc23)sc2c1CCCC2 (stereo not drawn)	-1%	-6	5.9	-38	-9
(continued)
SMILES	Mtb H37Rv	Arbovirus inh	RecA splice inh	YopH inh	Mtb bLac sens	others
CCOC(=O)CSC(=S)NC(=O)c1ccc(OC)cc1	-1%	5	-1.9	-17	-2
Cc1ccc(CNC(=O)CN(CCc2ccccc2)S(C)(=O)=O)cc1	2%	2	0.3	·	-1
COC(=O)Cc1ccc(N(Cc2ccccc2F)S(=O)(=O)c2ccc(C)cc2)cc1	19%	11	0.5	-29	6
COc1ccccc1OCc1ccc(C(=O)OCC2CCCO2)o1 (stereo not drawn)	-6%	-3	15	-3	6
Cc1cccc(NC(=O)c2cc[n+]([O-])cc2)c1C	·	·	-1.4	·	4
C/C(=N/OCC(=O)Nc1ccc(C)cc1C)c1cccs1	12%	-9	0.1	-19	-6
CC1CCC/C(=C\Nc2ccccc2C(=O)O)C1=O (stereo not drawn)	-1%	9	-0.2	-23	14
CC(C)(C)NC(=O)C(c1ccc(OCC(N)=O)cc1)N(C(=O)c1cccnc1)C1CC1 (stereo not drawn)	6%	8	1.5	-27	0
COc1ccc(C(CC(=O)Nc2cc([N+](=O)[O-])ccc2OC)c2ccccc2)cc1 (stereo not drawn)	8%	2	9.1	7	3
CN1CC[C@@]2([C@@]34CCN(C)C3Nc3ccccc34)c3ccccc3NC12 (stereo partly drawn)	-5%	·	0.5	·	2
